NS1 inh = blocks influenza NS1 protein function; S. cerevisiae slowed by influenza A NS1, growth recovery by OD600; hit rate 0.4% among 270,000; Potency, µM (doses to about 46.1 µM), without a hit: top-dose activity, positive = more growth; active means well fitted rising curve with a large enough effect; inconclusive means small, poorly fitted or top-dose-only effect; inactive means no such curve, though single readings can be large or run the other way; also: nearly all actives have a fitted effect of over 50% in size
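Read-out: OD600 growth recovery of NS1-expressing budding yeast. Cells grown overnight at 30C in -URA glucose medium, washed, resuspended and diluted 1:100 in 2% galactose assay medium, pH 6.0. Same strain lacking NS1 served as positive control.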
SARS PLP yeast = SARS-CoV PLP inhibition in yeast | S. cerevisiae expressing SARS-CoV PLpro, growth rescue; control for the full effect not named in the record | Potency, µM (top dose mostly 32.9 µM), without a hit: top-dose activity, positive = growth rescue | hit rate 0.19% among 330,000; active means well fitted rising curve with a large enough effect; inconclusive means small, poorly fitted or top-dose-only effect; inactive means no such curve, though single readings can be large or run the other way; also: 0% is about no effect; nearly all actives have a fitted effect of over 55% in size; growth read by luminescence after 48 h
LASV entry inh = blocks Lassa virus binding to or entry into cells; hit rate 1.2% among 300,000; Lassa virus pseudotype entry inhibition, cell reporter; control for the full effect not named in the record; Potency, µM (top dose mostly 37.9 µM), without a hit: top-dose activity change, negative = inhibition, hits mostly inhibitors; AID 540256; active means well fitted inhibition curve with a large enough effect; inconclusive means small, poorly fitted or top-dose-only effect, or effect the other way; inactive means flat fitted curve, though single readings scatter; tested in HEK293 cells; also: % is scaled to controls: 0 for no effect and ±100 for the full control effect; nearly all actives have a fitted effect of over 50% in size; luciferase read-out
MARV entry inh = Marburg virus entry inhibition | Marburg virus pseudotyped entry inhibition, cell reporter; control for the full effect not named in the record; about a third of the inactives were read at about 46 µM | Potency, µM (series often up to 37.8 µM), for the others: at the highest dose activity change, negative = inhibition, actives largely listed as inhibitors | hit rate 1.8% among 300,000; active = well fitted inhibition curve with a large enough effect; inconclusive = small, poorly fitted or top-dose-only effect, or effect the other way; inactive = flat fitted curve, though single readings scatter; tested in HEK293 cells; about a fifth of its hits are not listed in these tables; also: % is scaled to controls: 0 for no effect and ±100 for the full control effect; luciferase read-out
Cruzain inh noDet = blocks cruzain activity in detergent-free assay. P25779. Potency, µM, for the others: max response, negative = inhibition, most hits filed as inhibitors. hit rate 2.3% among 200,000. purified cruzain, Z-FR-AMC fluorescence, no detergent;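 also: plate controls were enzyme without inhibitor for no effect and buffer without enzyme for full effect; nearly all actives have a fitted effect of over 40% in size; top concentration of the series not given in the record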
Target sequence (P25779 123-467 limits assumed): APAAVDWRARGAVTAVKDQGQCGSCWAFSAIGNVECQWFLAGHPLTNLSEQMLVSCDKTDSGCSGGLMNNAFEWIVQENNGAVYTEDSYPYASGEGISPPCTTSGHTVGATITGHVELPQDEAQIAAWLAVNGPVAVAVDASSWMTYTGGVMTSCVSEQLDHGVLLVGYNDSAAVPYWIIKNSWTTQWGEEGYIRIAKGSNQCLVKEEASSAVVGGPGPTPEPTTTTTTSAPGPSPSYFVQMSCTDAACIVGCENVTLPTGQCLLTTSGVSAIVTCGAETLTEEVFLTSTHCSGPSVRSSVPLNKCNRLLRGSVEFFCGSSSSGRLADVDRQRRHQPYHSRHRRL
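Detergent-free condition (0.00005% Triton X-100) in acetate buffer pH 5.5 with DTT. 1.5 nM enzyme and compound were pre-mixed 15 min, then 2 uM Z-FR-AMC substrate added; reaction progress from fluorescence change between first and third reads (60 s).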
RE007 growth inh = less growth of the S. pombe RE007 Vpr strain; S. pombe RE007 Vpr strain, BacTiter-Glo ATP luminescence, 24 h; control for the full effect not named in the record; Potency, µM (highest dose often 92.2 µM), for inactives: at the highest dose activity change, negative = less growth; hit rate 0.21% among 360,000; active = well fitted falling curve with a large enough effect; inconclusive = small, poorly fitted or top-dose-only effect; inactive = no such curve, though single readings can be large or run the other way;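 also: % is scaled to controls: 0 for no effect and ±100 for the full control effect; nearly all actives have a fitted effect of over 50% in size; the assay follows cell death caused by Vpr and the record does not say whether a fall means rescue or toxicity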
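Fission yeast strain RE007, carrying one chromosomally integrated HIV-1 vpr copy, was seeded at OD 0.01 in PMG+AL medium with 23 nL pinned compound. After 24 h at 30 °C and 99% humidity, viability was read by BacTiter-Glo luminescence.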
Cruzain Triton = inhibitors of Trypanosoma cruzi cruzain with detergent; hit rate 0.43% among 200,000; P25779; AID 1478; Potency, µM, for the others: max response, negative = inhibition, actives largely listed as inhibitors; purified cruzain, Z-FR-AMC fluorescence, 0.01% Triton;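 also: plate controls were neutral wells for no effect and buffer without enzyme for full effect; nearly all actives have a fitted effect of over 40% in size; top concentration of the series not given in the record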
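Cysteine protease activity tested under reducing, mildly acidic conditions (100 mM sodium acetate pH 5.5, 5 mM DTT) plus 0.01% Triton X-100. Cruzain 1.5 nM; substrate Z-FR-AMC 2 uM; 15 min compound preincubation at room temperature.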
StopGo reporter = FMDV 2A StopGo reporter, luciferase signal | human cells with a luciferase reporter of 2A StopGo recoding; control for the full effect not named in the record | Potency, µM (doses to about 57.9 µM), inactives show at the top dose signal change, negative = less light | hit rate 1.2% among 410,000 | AID 1159524; active = well fitted falling curve with a large enough effect; inconclusive = small, poorly fitted or top-dose-only effect; inactive = no such curve, though single readings can be large or run the other way; tested in HEK293T cells; also: % is scaled to controls: 0 for no effect and ±100 for the full control effect; nearly all actives have a fitted effect of over 45% in size; luciferase light after 4 h
* = called active by the depositor; ? = inconclusive; · = no result given; & = joins results of further samples; [ ] = another dose, or the depositor's remark. Unless noted, calls follow the shape of the dose curve; as a rule, active = well fitted curve in the direction sought with a large enough effect; inconclusive = small, poorly fitted or top-dose-only effect, or another doubt; inactive = no such curve, though single readings can be large; an effect the other way counts as inactive or inconclusive. Potency is read from the fitted curve at half-maximal effect. Rows are unselected. About 4.7% of those tested had a hit in this group.

cpd	Molecule	NS1 inh	SARS PLP yeast	LASV entry inh	MARV entry inh
1	Cc1c(CNC(=O)c2nn3c(c2Cl)NC(c2ccccc2)CC3C(F)(F)F)cnn1C (stereo not given)	-15%	1%	0%	?
2	COc1ccc(Cl)cc1S(=O)(=O)Nc1noc2ccccc12	-7%	-1%	?	9%
3	c1ccc(CN2CCOCCOCCOCC2)cc1	-4%	-1%	5%	7%[46.1 µM]
4	O=C(O)COc1c(-c2ccc(Cl)cc2)oc2ccccc2c1=O	-9%	0%	13%	23%[46.1 µM]
5	O=C1S/C(=C\c2ccc(N3CCOCC3)o2)C(=O)N1Cc1ccc(F)cc1	-1%	-6%	-17%	-24%
6	COC(=O)c1ccccc1C(=O)N1CCC(CCC(=O)NC2CC2)CC1	-5%	-6%	·	·
7	CC(Oc1ccc(Cl)cc1Cl)C(=O)N(C)c1ccccc1 (stereo not given)	6%	-1%	·	·
8	O=C(CCc1ccc(O)c(O)c1)N/N=C/c1ccc2c(c1)OCO2	9%	1%	?	9%[46.1 µM]
9	C#CCn1c(=NC(=O)c2ccc(Br)s2)sc2cc(NC(C)=O)ccc21	-3%	13%	-1%	?
10	COc1ccc(CNC(=O)C2CCCN(S(=O)(=O)c3ccc(-n4cnnn4)cc3)C2)cc1 (stereo not given)	2%	5%	-5%	-11%[46.1 µM]
11	Fc1ccc(-n2cc(CNCCc3ccncc3)c(-c3ccccc3Cl)n2)cc1	9%	-2%	·	·
12	CCN(CC)c1ccc(/C=N/n2c(C)nc3ccccc3c2=O)cc1	-39%	-3%	·	·
13	COc1cccc(/C=N/NC(=O)c2[nH]c(C)c(C(=O)N/N=C/c3cccc(OC)c3O)c2C)c1O	-6%	?	?	8.9µM*
14	COC(=O)c1ccc(NC(=O)Cc2coc3cc(C)ccc23)cc1	·	·	-2%[46.1 µM]	6%[46.1 µM]
15	Cc1cc(C)n2nc(CC(=O)NC3CCCCCCC3)nc2n1	-5%	-1%	-13%	7%&7%

cpd	Cruzain inh noDet	RE007 growth inh	Cruzain Triton	StopGo reporter
1	?	-6%	-1.9%	?
2	·	15%	·	141%[activator]
3	·	37%	·	2%
4	·	-1%	·	-15%
5	22%	?	-1.2%	-14%
6	·	-2%	·	4%
7	·	13%	·	1%
8	·	9%	·	22%
9	-18%	29%	-12%	-8%
10	·	6%	·	-9%
11	·	2%	·	1%
12	·	26%	·	?
13	?	-6%	-2.1%	32%[activator]
14	5%	·	-13%	-8%
15	-19%	-4%	-6.7%	0%

One compound at a time, as listed above.
O=C1S/C(=C\c2ccc(N3CCOCC3)o2)C(=O)N1Cc1ccc(F)cc1 as listed: NS1 inh = -1%; SARS PLP yeast = -6%; LASV entry inh = -17%; MARV entry inh = -24%; Cruzain inh noDet = 22%; RE007 growth inh = ?; Cruzain Triton = -1.2%; StopGo reporter = -14%
COC(=O)c1ccc(NC(=O)Cc2coc3cc(C)ccc23)cc1 as listed: NS1 inh = ·; SARS PLP yeast = ·; LASV entry inh = -2%[46.1 µM]; MARV entry inh = 6%[46.1 µM]; Cruzain inh noDet = 5%; RE007 growth inh = ·; Cruzain Triton = -13%; StopGo reporter = -8%

Further compounds.
cpd	Molecule	NS1 inh	SARS PLP yeast	LASV entry inh	MARV entry inh
16	COc1ccccc1C(=O)N1CCCN(C(=O)c2ccccc2OC)CC1	0%[9.22 µM]	-4%	3%	2%
17	Cc1ccc2c(=O)c(C(=O)c3ccccc3)cn(CC(=O)Nc3ccc(C)c(Cl)c3)c2n1	·	·	3%[46.1 µM]	·
18	COc1ccc(-c2ccc(OC)c([C@H]3[C@H]4C=CC[C@@H](C)[C@@H]4C(=O)N3Cc3ccccc3)c2)cc1	7%	-1%	·	·
19	CC(=O)N1c2ccc(S(=O)(=O)N3CCCCC3)cc2CC1C(=O)NCc1cccc(Cl)c1 (stereo not given)	3%	2%	?	-24%[46.1 µM]
20	COc1ccc(NC(=O)CN(C)S(=O)(=O)c2ccc3[nH]c(=O)oc3c2)cc1	-11%	2%	·	·
21	CCOc1ccc(NC(=O)CSc2nnc(-c3ccccc3)n2N)cc1	3%	4%	7%	-16%[46.1 µM]
22	COc1ccc(/C=N/N=C/c2ccc(OC)c(O)c2)cc1O	4%	2%	-4%	1%
23	NC(=O)c1ccccc1NC(=O)CCCN1C(=O)CCC1=O	6%	-3%	12%	10%[46.1 µM]
24	CCN(CC)C(=O)Cn1c(=O)n(Cc2ccccc2Cl)c2c1c(=O)n(C)c(=O)n2C	-7%	·	-1%	4%&3%
25	N#CC(=C(O)CN1CCN(c2ccccc2F)CC1)c1nc(-c2ccccc2)cs1	·	·	13%[46.1 µM]	?
26	Cc1cc(Nc2ccccc2)n(-c2ccccc2)n1	-12%	-2%	-1%	?
27	CCCOC(=O)c1ccc(NC(=O)c2cc(Cl)ccc2OC)cc1	-27%	-9%	-6%	21%
28	COc1ccccc1CN1CC(C(=O)NCCn2nc(C)cc2C)CCC1=O (stereo not given)	7%	-2%	1%	4%
29	Nc1cccc(S(=O)(=O)Nc2ccccc2)c1	4%	1%	·	·
30	O=C(O)C1(c2ccccc2)CCC(Nc2ccccc2)C1 (stereo not given)	-12%	-3%	-8%[46.1 µM]	24%[46.1 µM]

cpd	Cruzain inh noDet	RE007 growth inh	Cruzain Triton	StopGo reporter
16	-7%	6%	-2.6%	0%
17	-16%	·	-3.3%	-16%
18	·	3%	·	-20%
19	·	4%	·	7%
20	·	0%	·	-18%
21	28%	3%	3.0%	13%
22	0%	20%	-4.0%	36%[activator]
23	-9%	-21%	-0.8%	-4%
24	·	19%	·	7%
25	·	2%	·	8%
26	1%	-7%	-3.7%	-10%
27	11%	·	-6.6%	0%
28	·	29%	·	-14%
29	·	-2%	·	15%
30	·	-17%	·	-8%

Arranged by length of the SMILES (descending): three of the compounds above.
cpd	Molecule	NS1 inh	SARS PLP yeast	LASV entry inh	MARV entry inh
18	COc1ccc(-c2ccc(OC)c([C@H]3[C@H]4C=CC[C@@H](C)[C@@H]4C(=O)N3Cc3ccccc3)c2)cc1	7%	-1%	·	·
17	Cc1ccc2c(=O)c(C(=O)c3ccccc3)cn(CC(=O)Nc3ccc(C)c(Cl)c3)c2n1	·	·	3%[46.1 µM]	·
16	COc1ccccc1C(=O)N1CCCN(C(=O)c2ccccc2OC)CC1	0%[9.22 µM]	-4%	3%	2%

cpd	Cruzain inh noDet	RE007 growth inh	Cruzain Triton	StopGo reporter
18	·	3%	·	-20%
17	-16%	·	-3.3%	-16%
16	-7%	6%	-2.6%	0%

The results go on:
cpd	Molecule	NS1 inh	SARS PLP yeast	LASV entry inh	MARV entry inh
31	CCNC(=O)N1CCNC(=O)C1CC(=O)OC (stereo not given)	?	7%	0%	?
32	O=C(CNS(=O)(=O)c1ccccc1)NNC(=O)C(Cl)Cl	11%	-2%	-3%[46.1 µM]	-6%[46.1 µM]
33	Cc1ccc(C)c(NC(=S)/C(=C(\[O-])c2ccc(OC(F)F)cc2)[n+]2ccccc2)c1	·	1%	1%[46.1 µM]	1%[46.1 µM]
34	Cc1ccc(C)c(OCc2nc(-c3cccnc3)no2)c1	-8%	?	-6%	9%
35	COc1ccc(-c2nc(NC(=O)Cn3c(=O)oc4ccccc43)sc2C)cc1	7%	-52%	·	·
36	Cn1c(SCc2ccc(F)cc2)nc2ccc(C(=O)NCc3ccc(Cl)cc3)cc21	·	·	·	?
37	O=C(COC(=O)C1CCC1)c1c[nH]c2ccccc12	·	-1%	0%	7%[46.1 µM]
38	CCN(CC)c1ncnc2c1cnn2Cc1ccc(Cl)cc1	-8%	-1%	-41%	-3%
39	COc1cc(NC(=O)c2cn(C3CCCC3)c(=O)c3c2c2ccccc2n3C)cc(OC)c1OC	·	·	-11%[46.1 µM]	7%[46.1 µM]
40	O=C(NCCS(=O)(=O)N1CCN(c2ccccc2)CC1)C1CC(=O)N(c2ccc(F)cc2)C1 (stereo not given)	-1%	-1%	-1%&9%[46.1 µM]	26%&26%[46.1 µM]
41	CCCCn1c(CN2CCN(c3cccc(Cl)c3)CC2)nc2c1c(=O)n(C)c(=O)n2C	-61%	3%	-1%	?
42	O=C(Nc1ccc(F)cc1)c1ccc2snnc2c1	-19%	-5%	4%[46.1 µM]	7%[46.1 µM]
43	O=c1cc(N2CCOCC2)[nH]c(=O)n1-c1ccc(Cl)cc1	-9%	3%	·	·
44	COc1ccc(C(C)(C)C)cc1NC(=O)c1[nH]c(C)c(C(C)=O)c1C	0%	-47%	11µM*	10µM*
45	CC(=O)Nc1ccc(NC(=O)CS(=O)(=O)c2cn(CC(=O)N3CCCCC3)c3ccccc23)cc1	·	·	-4%	9%
46	NC(=O)c1ccc(NC(=O)C2CC(=O)N(c3ccc4c(c3)OCCO4)C2)cc1 (stereo not given)	·	3%	1%	?
47	COc1ccc(NC(=O)N2CCOCC2)cc1OC	3%	-7%	-12%	-2%
48	CCn1c2ccccc2c2cnc(N=CN(C)C)c(C#N)c21	-24%	-22%	-8%	?

cpd	Cruzain inh noDet	RE007 growth inh	Cruzain Triton	StopGo reporter
31	4%	4%	3.4%	7%
32	·	-8%	·	-6%
33	·	-8%	·	5%
34	0%	8%	-8.6%	10%
35	?	7%	-7.0%	0%
36	-5%	·	0.6%	-28%
37	·	4%	·	18%
38	·	2%	·	?
39	?	·	-3.2%	?
40	13%	8%	-0.7%	31%&-11%[activator]
41	?	4%	-25%	-21%
42	·	-10%	·	21%
43	8%	-1%	5.4%	9%
44	·	-7%	·	-4%
45	·	-11%	·	-8%
46	·	12%	·	-8%
47	-11%	9%	0.1%	-17%
48	?	-27%	-5.6%	?

Source: PubChem (National Center for Advancing Translational Sciences (NCATS))
